# High-throughput results from PubChem.
# RecA splice inh = Mtb RecA intein splicing inhibitors, primary screen, biochemical, fluorescence, HTS. cell-free RecA intein splicing. inhibition, %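 (about 9 µM by stock and volumes)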. actives 0.75% (n = 290,000). AID 2221, 2009; in the data active means inhibition above about 30%; inconclusive means no clear call, values can overlap the other calls;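 further: 0% = vehicle wells and 100% = reference inhibitor control wells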
# Target sequence (P9WHJ3 whole entry, looked up, canonical isoform): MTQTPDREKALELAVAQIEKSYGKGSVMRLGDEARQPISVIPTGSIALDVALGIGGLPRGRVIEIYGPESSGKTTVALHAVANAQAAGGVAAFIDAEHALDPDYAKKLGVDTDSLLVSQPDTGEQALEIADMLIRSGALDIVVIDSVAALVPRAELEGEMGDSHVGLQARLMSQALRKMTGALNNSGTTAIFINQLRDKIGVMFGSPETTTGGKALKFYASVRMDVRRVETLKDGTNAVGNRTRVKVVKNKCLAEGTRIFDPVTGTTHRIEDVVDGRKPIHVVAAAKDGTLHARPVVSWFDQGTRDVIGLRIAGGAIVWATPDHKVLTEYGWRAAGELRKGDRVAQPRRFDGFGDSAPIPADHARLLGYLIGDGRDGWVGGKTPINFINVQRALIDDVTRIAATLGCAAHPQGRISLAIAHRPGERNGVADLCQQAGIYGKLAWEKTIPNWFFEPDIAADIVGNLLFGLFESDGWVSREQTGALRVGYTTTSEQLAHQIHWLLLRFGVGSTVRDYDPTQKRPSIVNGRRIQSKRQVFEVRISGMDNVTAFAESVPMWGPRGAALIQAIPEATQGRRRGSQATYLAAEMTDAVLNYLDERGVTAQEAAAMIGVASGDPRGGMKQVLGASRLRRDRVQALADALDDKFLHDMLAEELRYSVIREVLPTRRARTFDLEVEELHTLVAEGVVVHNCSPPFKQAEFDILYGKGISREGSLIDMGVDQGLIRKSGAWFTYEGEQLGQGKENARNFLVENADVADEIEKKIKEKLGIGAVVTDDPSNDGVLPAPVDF
# YopH PTP inh = YopH tyrosine phosphatase inhibitors, primary screen, biochemical, fluorescence Ex485/Em525; inhibition, %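 (about 10 µM by stock and volumes)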; actives 0.16% (n = 140,000); AID 898, 2007;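 active means inhibition of 50% or more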;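 further: controls were vehicle for no effect and minimum signal wells for full effect; inactives centre near -20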
# Mtb growth = M. tuberculosis H37Rv growth inhibitors, H37Rv strain (AID 1626); M. tuberculosis H37Rv growth inhibition; higher % means a stronger effect; inhibition, % at 10 µM; hits with a dose series show IC50 in µM; actives 0.95% (n = 220,000);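 active means confirmed in a dose series; inconclusive means inhibition above 80% but not taken into the dose series; inactive means below 80% or under 30% at every dose of the series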;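 further: bacteria incubated seven days before Alamar blue readout; 0% = bacteria only wells and 100% = bacteria with antibiotic wells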
# Arbovirus inh = antivirals against arbovirus infection, primary screen, cell-based, full library, 10K replicate subset | arbovirus infection cell-based antiviral screen | inhibition, % at 10 µM | actives 0.37% (n = 200,000) | AID 1251, 2008;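 active means inhibition from about 30%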;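 further: bluetongue infection of BSR cells; cell survival read as ATP light after 72 h; 0% = infected wells without compound and 100% = uninfected wells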
# Mtb betalactam = beta-lactam sensitization of Mtb H37Rv, H37Rv; M. tuberculosis H37Rv growth with meropenem, percent inhibition; hits of this screen are not shown here; inhibition, % at 25 µM; actives 0.27% (n = 330,000);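 active means about 74% or more and at least 40 points above the plate without the antibiotic, then above 30% in a dose series; inconclusive means first-round hits that could not be retested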;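 further: growth measured after seven days incubation then overnight dye step; 0% = bacteria only wells and 100% = bacteria with antibiotic; twin plates without the antibiotic show which effects depend on it; some results filed as inactive read as strong as hits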
# Arbovirus inh repeat = also measured in Arbovirus inh; calls as there; inhibition, %; measured here: 10K subset replicate screen; many hits read low in the repeat;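 first of two repeat runs on a subset; 0% = infected and 100% = uninfected wells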
# The depositor's hits bear a star; ? = inconclusive; nt = no result given. Only part of the results is shown; count on the stated rates, not on these rows.
SMILES,RecA splice inh,YopH PTP inh,Mtb growth,Arbovirus inh,Mtb betalactam,others
CN(C)CCNC(=O)C(=O)NCC1OCCCN1S(=O)(=O)c1cccs1 (stereo not drawn),-1.5,-30,0%,2,1,
CCN(CC)C(=O)c1ccc(NC(=O)c2cc(S(=O)(=O)N3CCCCCC3)ccc2OC)cc1,-1.7,nt,nt,nt,-5,
O=c1[nH]c(O)c(C=NC2CCN(Cc3ccccc3)CC2)c(=O)[nH]1,-1.1,-9,-17%,nt,-12,
Cc1ccc(-c2nn(Cc3ccccc3)cc2C=O)cc1,1.4,-6,3%,-4,9,
CC(=O)/C(=N\Nc1ccccc1)Oc1ccc([N+](=O)[O-])cc1,6.2,-7,-5%,5,5,
COCCOC(=O)C1=C(N)Oc2c(oc(CO)cc2=O)C1c1c(F)cccc1Cl (stereo not drawn),1.6,-36,-12%,2,?,
CC(=O)Nc1ccc(NC(=O)C2CC(=O)N(c3ccccc3Cl)C2)cc1 (stereo not drawn),-1.8,nt,0%,2,-6,
COc1ccc(-n2c(SC)nc3ccccc3c2=O)cc1,6.0,-47,4%,3,3,
N#Cc1cc([N+](=O)[O-])ccc1Oc1ccc(-c2nnco2)cc1,0.9,nt,nt,nt,6,
CC1CCCCN1C(=O)CSc1nc(C2CC2)nc2c1cnn2-c1ccccc1 (stereo not drawn),8.8,-10,21%,-14,15,
CC(=O)Nc1ccc(S(=O)(=O)N(C)CC(=O)OCC(=O)Nc2cccnc2Cl)cc1,-3.6,-26,-3%,-1,1,
O=C(NNC(=O)c1ccccc1[N+](=O)[O-])c1ccc(NS(=O)(=O)c2cccs2)cc1,-3.2,nt,nt,nt,-7,
Cc1cc(C)c(C)c(S(=O)(=O)NCCCN2CCOCC2)c1C,6.8,nt,1%,3,0,
Cc1ccc(-c2nnn(CC(=O)N(Cc3ccc(F)cc3)C(C(=O)NC3CCCC3)c3ccncc3)n2)o1 (stereo not drawn),-1.8,-29,4%,-2,4,
NS(=O)(=O)c1cccc2cccnc12,0.4,-24,-5%,5,-7,
COC(=O)CCC(=O)Nc1c(C)n(C)n(-c2ccccc2)c1=O,0.3,nt,-3%,1,0,
Cc1nc(-c2cccc(S(=O)(=O)N3CC(C)CC(C)C3)c2)cs1 (stereo not drawn),7.2,-8,1%,0,3,
COc1cccc(COC(=O)c2nn(-c3ccccc3)nc2N)c1,2.7,nt,-6%,-2,2,
Cc1ccc(NC2=NCC(=O)N2c2ccc3c(c2)OCCO3)c(C)c1,-0.2,-20,0%,1,-8,
COc1ccc(C(O)(C2CCCCC2)C(CN2CCCC2)c2ccccc2)cc1 (stereo not drawn),0.8,nt,nt,nt,?,

# Quoted at random: 3 compounds from above.
SMILES,RecA splice inh,YopH PTP inh,Mtb growth,Arbovirus inh,Mtb betalactam,others
Cc1ccc(-c2nnn(CC(=O)N(Cc3ccc(F)cc3)C(C(=O)NC3CCCC3)c3ccncc3)n2)o1 (stereo not drawn),-1.8,-29,4%,-2,4,
O=C(NNC(=O)c1ccccc1[N+](=O)[O-])c1ccc(NS(=O)(=O)c2cccs2)cc1,-3.2,nt,nt,nt,-7,
Cc1ccc(NC2=NCC(=O)N2c2ccc3c(c2)OCCO3)c(C)c1,-0.2,-20,0%,1,-8,

# Among those listed so far, these have a nitro group on carbon:
SMILES,RecA splice inh,YopH PTP inh,Mtb growth,Arbovirus inh,Mtb betalactam,others
CC(=O)/C(=N\Nc1ccccc1)Oc1ccc([N+](=O)[O-])cc1,6.2,-7,-5%,5,5,
N#Cc1cc([N+](=O)[O-])ccc1Oc1ccc(-c2nnco2)cc1,0.9,nt,nt,nt,6,
O=C(NNC(=O)c1ccccc1[N+](=O)[O-])c1ccc(NS(=O)(=O)c2cccs2)cc1,-3.2,nt,nt,nt,-7,

# Later entries
SMILES,RecA splice inh,YopH PTP inh,Mtb growth,Arbovirus inh,Mtb betalactam,others
Cc1ccc(C(=O)Nc2ccccc2C(=O)N2CCN(c3ccccc3)CC2)cc1,0.4,nt,nt,nt,-5,
CCCCn1cnc2c([nH]c3ccccc32)c1=O,-1.6,18,-6%,3,-2,
Cc1ccc(C2=NN(C(=O)CSc3nc4ncc(Cl)cc4[nH]3)C(c3ccco3)C2)cc1 (stereo not drawn),17,nt,5%,1,15,
COc1cc(OC)cc(C(=O)NC(=S)Nc2cc3oc4ccccc4c3cc2OC)c1,-0.3,-12,41%,-29,9,
Cc1cc(=O)n(C)c(=O)n1CCCCOc1cccc([N+](=O)[O-])c1,1.7,-27,-1%,-2,5,
O=c1[nH]c(=O)n(Cc2ccccc2)c2nc(-c3ccco3)cc(C(F)(F)F)c12,-1.7,-22,0%,4,-7,
Cn1c(-c2ccc3c(c2)OCO3)c(C(=O)O)c(=O)c2ccccc21,-5.2,-10,-4%,2,9,
O=S(=O)(NCCc1ccncc1)c1ccc(Br)cc1,-0.3,-6,13%,0,0,
CCC(C)[C@H](NC(=O)[C@H](Cc1ccccc1)n1c(=O)[nH]c2ccccc2c1=O)C(=O)N1CCC(C(=O)O)CC1 (stereo partly drawn),11,nt,nt,nt,-3,
COc1cccc(NC(=O)CCc2c(C)nc3nc(CNC(=O)c4cccc(F)c4)nn3c2C)c1,0.2,nt,nt,nt,2,

# Seven entries out of the list, ordered by length of the SMILES, ascending.
SMILES,RecA splice inh,YopH PTP inh,Mtb growth,Arbovirus inh,Mtb betalactam,others
CCCCn1cnc2c([nH]c3ccccc32)c1=O,-1.6,18,-6%,3,-2,
COc1ccc(-n2c(SC)nc3ccccc3c2=O)cc1,6.0,-47,4%,3,3,
Cc1nc(-c2cccc(S(=O)(=O)N3CC(C)CC(C)C3)c2)cs1 (stereo not drawn),7.2,-8,1%,0,3,
CC(=O)/C(=N\Nc1ccccc1)Oc1ccc([N+](=O)[O-])cc1,6.2,-7,-5%,5,5,
CC(=O)Nc1ccc(NC(=O)C2CC(=O)N(c3ccccc3Cl)C2)cc1 (stereo not drawn),-1.8,nt,0%,2,-6,
O=c1[nH]c(O)c(C=NC2CCN(Cc3ccccc3)CC2)c(=O)[nH]1,-1.1,-9,-17%,nt,-12,
O=c1[nH]c(=O)n(Cc2ccccc2)c2nc(-c3ccco3)cc(C(F)(F)F)c12,-1.7,-22,0%,4,-7,

# The results go on.
SMILES,RecA splice inh,YopH PTP inh,Mtb growth,Arbovirus inh,Mtb betalactam,others
CCOC(=O)c1c(C)oc(/N=C/c2ccccc2O)c1C#N,-3.1,-36,-5%,0,-22,
COc1ccccc1C(=O)N/C(=C/c1ccco1)C(=O)Nc1ccc(C(=O)O)cc1,0.8,nt,nt,nt,5,
CCOC(=O)[C@@H]1[C@H]2COc3ccccc3[C@@H]2N2C(=O)N(c3ccc(F)cc3)C(=O)[C@@]12C,2.0,nt,nt,nt,12,
COC(=O)C(NS(=O)(=O)c1ccccc1Br)C(C)C (stereo not drawn),1.6,nt,-2%,nt,-9,
CCCn1nc2cc(C(=O)NCc3ccccc3)ccc2c1OCC,-2.1,-30,-7%,-1,-13,
Cc1cccc2c(CCN)c[nH]c12,-1.7,nt,-3%,16,-3,
Cc1c(NC(=O)C(C)Oc2cccc(Cl)c2)c(=O)n(-c2ccccc2)n1C (stereo not drawn),0.2,nt,nt,nt,-9,
CC(C)c1nnc(NC(=O)CCC(=O)NC2CCCCCC2)s1,3.3,nt,nt,nt,2,
Cc1cccc(C)c1NC(=O)[C@@]1(CC(=O)O)CC(/C=C/c2ccccc2)=NO1,-1.4,nt,nt,nt,2,
COc1ccc(/C=C2/C(=O)N=C(N)N2C)cc1OC,0.7,-5,1%,3,-4,
O=C(NCCNC(=O)c1ccccc1)c1ccccc1,1.5,nt,-10%,nt,-8,
Cc1nc2sc(C(c3ccc(F)cc3)N3CCN(C(=O)c4ccco4)CC3)c(O)n2n1 (stereo not drawn),0.6,-30,3%,0,2,
COc1ccc(-c2[nH]ncc2CN2CCCOc3c(cccc3OC)C2)c(OC)c1,-2.4,nt,-12%,10,-5,
Cc1[nH]c(C)c(S(=O)(=O)Nc2ccc(F)cc2Cl)c1C(=O)N1CCCC1,0.9,nt,nt,nt,-5,
CCOc1cc(CNCCCN2CCOCC2)cc(Br)c1OCC(=O)Nc1cccc(C(F)(F)F)c1,2.5,-48,?,-5,84,
CCC(C)NS(=O)(=O)c1ccc(NC(=O)c2c(-c3ccccc3)noc2C)cc1 (stereo not drawn),nt,-58,-11%,-12,7,Arbovirus inh repeat=-12
C#Cc1ccc(CN2CCC(Oc3ccc(C(=O)NCc4ccccn4)cc3)CC2)cc1,4.1,nt,nt,nt,?,
CCOc1ccccc1C1NC(=O)c2ccccc2O1 (stereo not drawn),3.4,nt,nt,nt,-1,
CSCCC(NC(N)=O)C(=O)Nc1cccc(C#N)c1 (stereo not drawn),-1.2,nt,0%,-1,-4,
CCc1nnc(NC(=O)CCC(=O)N2CCN(Cc3ccc(C)cc3C)CC2)s1,-0.6,nt,nt,nt,-4,
CCc1ccc(OCc2n[nH]c(=S)n2Cc2ccccc2)cc1,0.4,nt,9%,3,-5,
CC12CCC3C(CC=C4CC(O)CCC43C)C1C/C(=C\c1cccc(F)c1)C2=O (stereo not drawn),1.1,1,9%,-20,-1,
O=C(c1ccc(CS(=O)Cc2ccc(Cl)cc2)o1)N1CCN(c2ccccc2F)CC1 (stereo not drawn),0.5,nt,nt,nt,4,
Cc1cc(C)nc(NS(=O)(=O)c2ccccc2)n1,-2.7,-30,-5%,-6,7,
c1ccc(OCc2nc(-c3ccncc3)no2)cc1,3.3,nt,-2%,-7,0,
COC(=O)c1cc(OC)c(OC)cc1NCC(=O)Nc1ccc(OC)c(OC)c1,4.2,-20,8%,4,1,
O=c1c2sccc2nc(SCc2cc(=O)n3cc(Cl)ccc3n2)n1-c1ccc(F)cc1,-1.2,-29,-7%,-1,1,
Cc1cccn2c(=O)c3cc(S(=O)(=O)c4ccccc4)c(=N)n(Cc4ccc(F)cc4)c3nc12,-0.4,nt,nt,nt,1,
O=C(Nc1ccccn1)c1ccc(S(=O)(=O)N2CCCC2)cc1,-2.3,nt,nt,nt,-4,
O=c1[nH]c(SCc2ccccc2)nc2c1sc1ccccc12,-1.0,nt,2%,-10,-2,
COc1cc2sc(C)nc2cc1C,-1.6,nt,-3%,10,2,
O=C(NCCC1=CCCCC1)C1CCN(c2nnc(-n3cccc3)s2)CC1,1.8,-11,6%,-3,-5,Arbovirus inh repeat=-3
Cc1cc(O)ccc1Nc1nc(-c2cccnc2)cs1,2.0,nt,nt,nt,-3,
CCOc1ccccc1C1CC(c2cccs2)=NN1S(C)(=O)=O (stereo not drawn),2.8,nt,-8%,-2,2,
Cc1ccccc1OCC(=O)N/N=C/c1c(C)nn(-c2ccccc2)c1Cl,0.2,-22,3%,-4,5,
CCOC(=O)C1=C(N)Oc2cc(O)ccc2C1c1cccc(Cl)c1 (stereo not drawn),3.5,nt,nt,nt,6,
COc1ccccc1C(=O)N(Cc1nc(-c2ccc(Cl)cc2)no1)C(C)C,11,-23,14%,2,2,Arbovirus inh repeat=-26
Cc1ccc(C(=O)Nc2ccccc2N2CCCCC2)cc1,19,nt,nt,nt,66,
Cc1ccc2c(CN3C(=O)NC4(CCCCC4)C3=O)cc(=O)oc2c1C,1.6,-23,-1%,-5,25,
CCN1/C(=C2/SC(=S)N(NC(C)=O)C2=O)Sc2ccccc21,-5.1,nt,nt,nt,3,
CC(OC(=O)c1cc[n+]([O-])cc1)C(=O)Nc1ccc(Cl)cn1 (stereo not drawn),0.3,-30,-7%,7,-13,Arbovirus inh repeat=2
NS(=O)(=O)c1ccc(CNc2ncnc3sccc23)cc1,-1.5,nt,nt,nt,-4,
CN(C(=O)COC(=O)CNC(=O)c1ccccc1Cl)c1ccccc1,0.6,nt,2%,0,-4,
CCC(C)(C)NC(=O)/C=C/c1cnc2ccccc2n1,0.9,-12,-2%,1,-5,
O=c1c(Cl)c(NCCO)ncn1-c1ccccc1,7.2,9,1%,-3,12,
O=C(O/N=C(\c1ccccc1)c1ccccn1)c1ccc(Cl)c(Cl)c1,1.6,-47,3%,-7,?,
COc1ccc2cc(C#N)c(Nc3cccc(F)c3)nc2c1,-2.9,nt,4%,2,-8,
CCc1ccc(-c2nc(C(N)=O)c3[nH]c(=O)n(-c4ccccc4OC)c3n2)cc1,0.0,-17,9%,-7,2,Arbovirus inh repeat=-18
Cc1csc(=S)n1-c1ccccc1,0.0,-4,-8%,2,-8,
COc1cc(C(=O)Nc2c(C)cc(C)cc2C)c([N+](=O)[O-])cc1OC,-1.0,-35,-4%,4,-8,
CCOc1ccccc1NC(=O)c1oc2ccccc2c1NC(=O)C1CCCO1 (stereo not drawn),-0.8,nt,5%,-7,4,
